VDR inh – Inhibitors of the vitamin D receptor (VDR): qHTS. Vitamin D3 receptor (Homo sapiens), P11473. VDR-SRC2-3 peptide fluorescence polarization, 2 h. Potency, µM, inactives show max response, negative = inhibition, most hits filed as inhibitors. 400,000 compounds, 0.93% hits. AID 504847, 2011; active means well fitted inhibition curve with a large enough effect; inconclusive means small, poorly fitted or top-dose-only effect, or another doubt; inactive means no such curve, though single readings can be large or run the other way; further: series mostly up to about 120 µM
Target sequence (P11473 whole entry, looked up): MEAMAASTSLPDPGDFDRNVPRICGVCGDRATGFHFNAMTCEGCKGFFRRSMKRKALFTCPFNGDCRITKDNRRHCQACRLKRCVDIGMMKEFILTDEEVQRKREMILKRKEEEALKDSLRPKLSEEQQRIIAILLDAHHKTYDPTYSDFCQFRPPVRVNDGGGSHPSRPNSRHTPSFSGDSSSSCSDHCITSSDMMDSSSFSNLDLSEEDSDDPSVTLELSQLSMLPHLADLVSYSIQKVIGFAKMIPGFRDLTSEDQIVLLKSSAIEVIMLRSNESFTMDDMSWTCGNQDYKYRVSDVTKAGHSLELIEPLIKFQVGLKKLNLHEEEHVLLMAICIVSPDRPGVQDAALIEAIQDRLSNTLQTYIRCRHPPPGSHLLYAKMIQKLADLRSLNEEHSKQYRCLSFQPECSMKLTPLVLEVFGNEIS
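Two reagent solutions held at 4 deg C in the dark were dispensed, compounds pinned at 23 nl, and the mixture incubated 2 h at room temperature. Read-out: fluorescence polarization of VDR–SRC2-3 peptide binding.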
* = called active by the depositor; & = joins results of further samples. On the % scale 0 is the no-effect control and ±100 the full control effect; potency means the concentration at half of the fitted maximal effect. Only part of the results is shown; count on the stated rates, not on these rows.

Screening O=C(CC1SC(=Nc2ccccc2F)N(CCN2CCOCC2)C1=O)Nc1ccc(F)cc1F (configuration not stated) returned VDR inh -15%.
OC(COc1cccc(OCC(O)CN2CCOCC2)c1)CN1CCOCC1 (configuration not stated) was read as VDR inh 4%&4%.
Screening CC1CCCC(C)N1C(=O)COC(=O)C1CCN(S(=O)(=O)c2ccc3c(c2)OCCO3)CC1 (configuration not stated) returned VDR inh 8%.
C1CC1Cc1noc(CN2CCN(CC3CC3)CC2)n1 was read as VDR inh -14%.
`COc1ccnc(Oc2ccccc2)n1` gave VDR inh 9%.
Screening COc1ccc(Cl)cc1-c1nc(SCC(=O)NC2CCCC2)n[nH]1 returned VDR inh 2%.
For CCOC(=O)c1c(-c2ccccc2)csc1NC(=O)/C(C#N)=C\c1ccc(O)c(OC)c1 the results were VDR inh 5%.
O=C(C1CC(=O)N(c2ccc3c(c2)OCCO3)C1)N1CCN(S(=O)(=O)c2cccc(F)c2)CC1 (configuration not stated) was read as VDR inh inconclusive.
Screening Cc1cc(NC(=O)CSc2ccc3ccccc3c2)no1 returned VDR inh -22%.
For COc1cc(C(=S)N2CCOCC2)cc(OC)c1OC(=O)c1ccc([N+](=O)[O-])cc1[N+](=O)[O-] the results were VDR inh -6%.
Screening CCOCCn1c(CN(C)Cc2ccccc2)nc2c1c(=O)n(C)c(=O)n2C returned VDR inh -18%.
`O=C(Nc1ccc(S(=O)(=O)Nc2ncccn2)cc1)c1ccc(F)c(S(=O)(=O)N2CCOCC2)c1` gave VDR inh -29%.

Reprinted at random: 4 entries already listed
OC(COc1cccc(OCC(O)CN2CCOCC2)c1)CN1CCOCC1 (configuration not stated) was read as VDR inh 4%&4%.
`O=C(Nc1ccc(S(=O)(=O)Nc2ncccn2)cc1)c1ccc(F)c(S(=O)(=O)N2CCOCC2)c1` gave VDR inh -29%.
Screening O=C(CC1SC(=Nc2ccccc2F)N(CCN2CCOCC2)C1=O)Nc1ccc(F)cc1F (configuration not stated) returned VDR inh -15%.
For CCOC(=O)c1c(-c2ccccc2)csc1NC(=O)/C(C#N)=C\c1ccc(O)c(OC)c1 the results were VDR inh 5%.

(cont.)
For COc1ccc(CCNC(=S)N2CCN(S(=O)(=O)c3ccc(Cl)cc3)CC2)cc1 the results were VDR inh 0%.
For CC(=O)NS(=O)(=O)c1ccc(NC(=O)c2cccc(OCc3c(C)noc3C)c2)cc1 the results were VDR inh 19%.
Screening COc1ccc(S(=O)(=O)N(C)CC(=O)NC2CCCC2)cc1Cl returned VDR inh -2%.
C#CC(C)(C)NC(=O)c1ccccc1OC was read as VDR inh -11%.
`Cc1ccc(OCC(=O)Nc2cc(-c3nn4c(C)nnc4s3)ccc2C)cc1` gave VDR inh -5%.
`O=C(Cc1cccc2ccccc12)N/N=C/c1ccncc1` gave VDR inh 5%.
`CN1CCCc2cc3c(C(F)(F)F)cc(=O)oc3nc21` gave VDR inh 5%.
Screening CN(C)c1ccc(N=C/C=C2/N(C)c3ccccc3C2(C)C)cc1 returned VDR inh -5%.
For O=C(COC(=O)c1ccc(Br)c(S(=O)(=O)N2CCOCC2)c1)NCCc1ccccc1 the results were VDR inh -16%.
CC(NC(=O)NC1CCCCC1)C(c1cccs1)N1CCN(Cc2ccccc2)CC1 (configuration not stated) was read as VDR inh 16%.
For Cc1cc(C(=O)OCC(=O)NCc2ccccc2Cl)c(C)o1 the results were VDR inh -12%.
For Cc1nc2c3cc(F)ccc3n(Cc3ccc(F)cc3)c2s1 the results were VDR inh inconclusive.
Screening COc1ccccc1Oc1nc2ccccn2c(=O)c1/C=C(\C#N)C(=O)Nc1c(C)n(C)n(-c2ccccc2)c1=O returned VDR inh inconclusive.
`CC(C)CN(C(=O)CCc1ccccc1Cl)c1c(N)n(Cc2ccccc2)c(=O)[nH]c1=O` gave VDR inh inconclusive.
COc1cccc(NC(=O)CN(C)C(=O)c2ccc3[nH]c4c(c3c2)CC(C)CC4)c1 (configuration not stated) was read as VDR inh -5%.
Screening CCOC(=O)c1cc(C(=O)OCC)c2cccc(C)n2c1=O returned VDR inh 6%.
`CN1CCN(CC(=O)N2c3ccccc3Sc3ccccc32)CC1` gave VDR inh -9%.
`Cc1cc2ccccc2n1CCNC(=O)C(C)C` gave VDR inh -6%.
For Cn1c(NCc2ccco2)nc2c1c(=O)n(Cc1ccc(Cl)cc1Cl)c(=O)n2C the results were VDR inh 2%.
Screening O=C(NCc1ccc(Cl)cc1)C(=O)NCC1OCCCN1S(=O)(=O)c1cccs1 (configuration not stated) returned VDR inh -5%.
For CCC(C)Sc1ccc(-c2nc3cc(C)ccn3c2NC2CCCCC2)cc1 (configuration not stated) the results were VDR inh -9%.
Screening O=C(CSc1nccn1-c1ccccc1)Nc1nc2ccccc2s1 returned VDR inh -2%.
For CCn1cc(C(=O)O)c(=O)c2cnc(N3CCN(C(=S)NC(=O)c4ccc(OC)cc4)CC3)nc21 the results were VDR inh 2%.
Cn1c(=O)c(=O)n(C)c2cc(S(=O)(=O)NCCc3ccccc3)ccc21 was read as VDR inh -7%.

Gathered by group: the entries above containing a thiophene ring, fused or not (3)
For CCOC(=O)c1c(-c2ccccc2)csc1NC(=O)/C(C#N)=C\c1ccc(O)c(OC)c1 the results were VDR inh 5%.
CC(NC(=O)NC1CCCCC1)C(c1cccs1)N1CCN(Cc2ccccc2)CC1 (configuration not stated) was read as VDR inh 16%.
Screening O=C(NCc1ccc(Cl)cc1)C(=O)NCC1OCCCN1S(=O)(=O)c1cccs1 (configuration not stated) returned VDR inh -5%.

Continuation:
O=C1NC[C@@H](c2ccccc2)OC(=O)[C@H](Cc2ccc(F)cc2)CC/C=C/C[C@H]1CC(=O)N(CCO)Cc1ccccc1 was read as VDR inh -3%.
`CCN1c2ccccc2-c2nc(SCC(=O)Nc3cccc(C(F)(F)F)c3)ncc2S1(=O)=O` gave VDR inh 6%.
CCOc1ccc2nc(Nc3nc(CSc4nnnn4-c4ccccc4)cc(=O)[nH]3)nc(C)c2c1 was read as VDR inh -2%.
COc1ccc(-c2c3c(=O)n(C)c(=O)n(C)c3cn2C2CCCCC2)cc1 was read as VDR inh 10%.
Cc1cccc(-n2c(SCC(N)=O)nc3c(c2=O)C2(CCCCC2)Cc2ccccc2-3)c1 was read as VDR inh -2%.
O=C(NCc1cccnc1)C1CC(=O)N(c2ccc(Cl)cc2)C1 (configuration not stated) was read as VDR inh 11%.
Screening CCN(CC(=O)N1CCCC1)S(=O)(=O)c1ccc2ccccc2c1 returned VDR inh -22%.
For CC(C)NC(=O)Nc1cccc2c1O[C@H](CN(C)C(=O)NC1CCCCC1)[C@@H](C)CN([C@H](C)CO)C2=O the results were VDR inh -20%.
Screening CC(=O)Cc1nsc(NC(=O)c2ccc(COc3ccccc3)o2)n1 returned VDR inh 0%.
`Cc1ccc(CN(C)C(=O)c2c(C)nn(-c3ccccc3)c2C)cc1` gave VDR inh -7%.
Nc1nnc(SCCCC(=O)c2ccc(Br)cc2)s1 was read as VDR inh -2%.
For CN(C)S(=O)(=O)c1ccc(C(=O)NCCC(=O)N2CCCC2)cc1 the results were VDR inh inconclusive.
CCC1=NC(c2ccc(Br)cc2)N(O)C1(C)C (configuration not stated) was read as VDR inh 12%.
Screening O=C1CC(c2cccc(F)c2)c2c(n3ncnc3[nH]c2=O)N1 (configuration not stated) returned VDR inh -13%.
`O=C(Nc1ccc(S(=O)(=O)Nc2ccccc2)cc1)C1COc2ccccc2O1` (configuration not stated) gave VDR inh 12%.
Screening CCCCCCCC(=O)NNC(=O)c1c(O)c2ccccc2[nH]c1=O returned VDR inh 10%.
Screening CCN1C(=O)C(F)(CC)C(=O)c2ccccc21 (configuration not stated) returned VDR inh -7%.
For Cc1nc2c3ccccc3nc(NNC(=O)CCC(=O)N3CCN(c4ccc(F)cc4)CC3)n2n1 the results were VDR inh -13%&2%.
Screening Cc1c(Cl)cccc1NC(=O)Nc1ccccc1C(N)=O returned VDR inh -7%.
Screening CCCCc1c(C)nc2nc(SCc3ccc(Cl)cc3)[nH]n2c1=O returned VDR inh -14%.
For CCOC(=O)c1ccc2c(c1)N(C)C(=O)c1ccccc1S2 the results were VDR inh 11%.
`CCN(CC)CCCNC(=O)CCCn1c(=O)[nH]c2ccc(Br)cc2c1=O` gave VDR inh -16%.
For CC1=NN(c2ccccc2)C(=O)/C1=C\c1c(C)[nH]n(-c2ccccc2)c1=O the results were VDR inh -7%.
Screening COc1ccccc1C(=O)COC(=O)CCCN=C1NS(=O)(=O)c2ccccc21 returned VDR inh -16%.

Sorted by molar mass (ascending): some entries from above
CCC1=NC(c2ccc(Br)cc2)N(O)C1(C)C (configuration not stated) was read as VDR inh 12%.
Screening O=C1CC(c2cccc(F)c2)c2c(n3ncnc3[nH]c2=O)N1 (configuration not stated) returned VDR inh -13%.
For CC1=NN(c2ccccc2)C(=O)/C1=C\c1c(C)[nH]n(-c2ccccc2)c1=O the results were VDR inh -7%.
Screening CCCCc1c(C)nc2nc(SCc3ccc(Cl)cc3)[nH]n2c1=O returned VDR inh -14%.

(list continues)
For O=C(Nc1ccc(S(=O)(=O)Nc2ncccn2)cc1)c1cnc(Cl)c(Cl)c1 the results were VDR inh -9%.
Screening COCCN(C(=O)COC(=O)CCC(=O)c1ccc(C)cc1)c1c(N)n(Cc2ccccc2)c(=O)[nH]c1=O returned VDR inh -26%.
COc1ccc(N2CCN(c3nc4ccccn4c(=O)c3/C=C(\C#N)S(=O)(=O)c3ccccc3)CC2)cc1 was read as VDR inh -7%.
Screening CC(C)(C)OC(=O)N1CCCC(C(=O)Nc2cccc(C(=O)N3CCOCC3)c2)C1 (configuration not stated) returned VDR inh 1%.
`O=C(CCNS(=O)(=O)c1ccccc1)N1CCN(c2ccccc2)CC1` gave VDR inh -12%.
`CCC1=NNC(=O)C(CC(=O)Nc2ccccc2)c2cc(OC)c(OC)cc21` (configuration not stated) gave VDR inh 12%.
Screening CNc1nc(Oc2ccc(C(=O)OC)cc2)nc(SC)n1 returned VDR inh -8%.
`OCCSc1nncn1/N=C/c1c[nH]c2ccccc12` gave VDR inh -8%.
CC(CC(=O)N(C)CC(=O)Nc1ccc(N2CCOCC2)cc1)c1ccccc1 (configuration not stated) was read as VDR inh 4%.
For COc1ccccc1NC(=O)N1CCc2[nH]c3ccc(Cl)cc3c2C1 the results were VDR inh -8%.
Screening Cc1cc(C)c(C(=O)Nc2ccccc2)c(CC(C)(C)C(=O)O)c1 returned VDR inh 12%.
`COc1ccc(CCNC(=O)c2ccc(NC(=O)CC3SC(N4CCCC4)=NC3=O)cc2)cc1OC` (configuration not stated) gave VDR inh 1%.
Screening CN1CCN(c2ccnc(-c3cccc(NS(C)(=O)=O)c3)n2)CC1 returned VDR inh -23%.
Screening COc1cc(NC(=O)C2CCCCC2)c2ncccc2c1 returned VDR inh 8%.
For CCOc1ccc(NC(=O)CCc2nnc3n(C)c(=O)c4sccc4n23)cc1 the results were VDR inh 1%.
CC(C)=CCC/C(C)=C/CNC(=O)C[C@H]1C[C@H](C(=O)N2CCCCC2)[C@@]2(CCc3ccccc3)c3[nH]c4ccc(Cl)cc4c3CCN2C1=O was read as VDR inh -3%.
`C[C@H]1Oc2ccccc2C(=O)C1C(=O)c1ccccc1` (some centres not stated) gave VDR inh 8%.
For Cc1ccc(-c2cn3c(n2)sc2cc(C(=O)NCCCN4CCCCC4)ccc23)cc1 the results were VDR inh 6%.
Cc1ccc(OCC(O)CN2CCN(Cc3ccc4c(c3)OCO4)CC2)c(C)c1 (configuration not stated) was read as VDR inh 5%&-10%.
For O=C(NCCCn1ncc2ccccc21)c1cc(COc2c(F)cccc2F)on1 the results were VDR inh 1%.
Screening CSCCC(NC(=O)c1cc(CC(C)C)oc1C)C(=O)O (configuration not stated) returned VDR inh 3%.
`Cc1ccc(C)c(N(CC(=O)NCC2CCCO2)C(=O)CCC(=O)Nc2nccs2)c1` (configuration not stated) gave VDR inh -22%.
O=C(CSc1n[nH]c(=O)[nH]c1=O)N/N=C/C=C\c1ccccc1 was read as VDR inh 2%.
CCCCN1C(=O)C2(NNc3ccccc3O2)c2ccccc21 (configuration not stated) was read as VDR inh -2%.
`C=CCn1c(SCC(=O)N2CCN(c3ccccc3)CC2)nnc1-c1ccco1` gave VDR inh 17%.
Screening COc1ccc(OC)c(CN2CCN(C(=O)c3cccs3)CC2)c1 returned VDR inh -2%.
For CSCCC(NC(=O)c1ccccc1Cl)C(=O)N(C)CC(=O)Nc1ccc(N2CCOCC2)cc1 (configuration not stated) the results were VDR inh -8%.
For O=C(CCC1N=C2c3ccccc3N=C(SCc3ccc(F)cc3)N2C1=O)NC1CCCCC1 (configuration not stated) the results were VDR inh 14%.
`CCc1c(O)nc(SCC(=O)c2ccccc2)n(-c2ccccc2)c1=O` gave VDR inh -8%.
O=C(NCc1ccc(Cl)cc1)C1CCCO1 (configuration not stated) was read as VDR inh -8%.
`C=CCNC(=O)C1CC1(c1cccc(C)c1)c1cccc(C)c1` (configuration not stated) gave VDR inh 11%.

Structural class: the entries above containing a furan ring, fused or not.
For Cc1cc(C(=O)OCC(=O)NCc2ccccc2Cl)c(C)o1 the results were VDR inh -12%.
For Cn1c(NCc2ccco2)nc2c1c(=O)n(Cc1ccc(Cl)cc1Cl)c(=O)n2C the results were VDR inh 2%.
Screening CC(=O)Cc1nsc(NC(=O)c2ccc(COc3ccccc3)o2)n1 returned VDR inh 0%.
Screening CSCCC(NC(=O)c1cc(CC(C)C)oc1C)C(=O)O (configuration not stated) returned VDR inh 3%.
`C=CCn1c(SCC(=O)N2CCN(c3ccccc3)CC2)nnc1-c1ccco1` gave VDR inh 17%.
